High-throughput results: PubChem, National Center for Advancing Translational Sciences (NCATS)
AmpC inh no det: AmpC beta-lactamase inhibition, detergent-free assay; hit rate 1.8% among 71,000; AmpC nitrocefin hydrolysis, absorbance 480 nm, no detergent; potencies from a single point are estimates; P00811; Potency, µM (titrated, usually from 28.7 µM), without a hit: at the top dose activity change, negative = inhibition; AID 585; active = falling curve, for most hits resting on a single point; inconclusive = weak or doubtful change; inactive = flat or rising curve; further: % of control where 0% means no effect; about half of the hits show no inhibition at the top dose; a quarter of the inactives give rising signals
Target sequence (P00811 whole entry, looked up): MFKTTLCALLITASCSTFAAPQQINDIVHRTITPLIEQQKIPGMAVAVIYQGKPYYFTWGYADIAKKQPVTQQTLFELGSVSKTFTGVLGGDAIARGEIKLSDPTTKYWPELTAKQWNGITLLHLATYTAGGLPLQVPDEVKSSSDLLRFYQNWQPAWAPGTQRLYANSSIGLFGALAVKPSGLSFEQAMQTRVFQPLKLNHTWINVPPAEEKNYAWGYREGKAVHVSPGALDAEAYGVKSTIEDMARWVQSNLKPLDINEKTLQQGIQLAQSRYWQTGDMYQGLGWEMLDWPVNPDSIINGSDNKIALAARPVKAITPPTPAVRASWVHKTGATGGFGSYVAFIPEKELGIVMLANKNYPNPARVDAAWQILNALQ
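Enzyme, pH 7.0 phosphate. Compound titrations were pre-incubated with AmpC for 15 min at room temperature before nitrocefin (stock 800 uM) addition; product formation was recorded at 480 nm every 20 s for 4 min.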
* = called active by the depositor; [ ] = another dose, or the depositor's remark. Potency means the concentration at half of the fitted maximal effect. An excerpt; count on the stated rates, not on these rows.

Screening CN(C)C=NC(=O)/C(C#N)=C1\CCc2ccccc2N1 returned AmpC inh no det -1.9%.
CCC(C(=O)Nc1ccccc1C(=O)N1CCCC1)N1C(=O)c2ccccc2C1=O (stereo unspecified) was read as AmpC inh no det 16.3%.
`CCN(CC)C(=O)COc1ccc2oc(C)c(C(=O)OC(C)C)c2c1` gave AmpC inh no det 97.4%.
For CCN1CCN(C(=O)Cn2ncc3ccsc3c2=O)CC1 the results were AmpC inh no det -6.4%.
Screening CCOC(=O)c1ccc(NC(=O)Nc2c(C)nn(C)c2C)cc1 returned AmpC inh no det -6.8%.
`COc1c(C)cccc1C(=O)Nc1cc(-c2nn3c(C)nnc3s2)ccc1C` gave AmpC inh no det 38.5%.
For CCSc1nnc(NC(=O)C2CCCN(S(=O)(=O)c3cnc[nH]3)C2)s1 (stereo unspecified) the results were AmpC inh no det -12.8%.
`OC1CCN(C(c2ccc3ncccc3c2)c2nnnn2C2CCCCC2)CC1` (stereo unspecified) gave AmpC inh no det 41.0%.
Screening O=C(CCCN1C(=O)c2ccccc2C1=O)Nc1c2c(nc3c1CCC3)CCC2 returned AmpC inh no det 33.7%.
Screening Cc1c(/C=N/n2cnnc2)c2ccccc2n1CCOc1ccc(Cl)cc1 returned AmpC inh no det 90.7%.
Screening CC(=O)N1CCC2(CC1)CN(c1cccc(-c3ccccc3)c1)C2 returned AmpC inh no det 166.5%.
COc1ccc(N2CCN(CC(=O)Nc3ccc(-n4cnnn4)cc3)CC2)cc1 was read as AmpC inh no det -6.0%.
`CCOc1ccc(NC(=O)N(C2CCCCC2)C(C)c2ccncc2)cc1` (stereo unspecified) gave AmpC inh no det 44.8%.
Screening CC(=O)Oc1ccc(Oc2ccc(-c3noc(C)n3)cc2)cc1 returned AmpC inh no det 36.5%.
For Cc1cc[c]([Sb]2[O][C@H]([C@H](O)[C@H](O)C(=O)O)[C@@H](CO)[O]2)cc1 the results were AmpC inh no det -4.7%[5.75 µM].
Screening Cc1ccc(OCC(=O)N2CCN(C(=O)CCC3CCCC3)CC2)cc1 returned AmpC inh no det 91.8%.
For O=C(O)Cn1cnc2scc(-c3cccs3)c2c1=O the results were AmpC inh no det -16.5%.
For CCN(CC)S(=O)(=O)c1ccc(C(=O)Nc2nnc(C(C)C)s2)cc1 the results were AmpC inh no det 5.6%.
For COc1ccc2nc(-n3c(C)ccc3C)sc2c1 the results were AmpC inh no det -9.3%.
Screening Cc1ccc(CNC(=O)C2CCCN(c3nc4ccccc4o3)C2)cc1 (stereo unspecified) returned AmpC inh no det 7.6%.
Screening CC(=O)c1cccc(NC(=O)c2cccc(S(=O)(=O)N(C)C)c2)c1 returned AmpC inh no det 7.2%.
CC(CCC(=O)O)(c1ccc(O)cc1)c1ccc(O)cc1 was read as AmpC inh no det -4.2%[5.75 µM].
For N#CCSc1nnc(Cc2ccc3c(c2)OCO3)o1 the results were AmpC inh no det -9.8%.
O=C1c2ccccc2C(=O)c2c(NC(=O)c3ccc4c5c(ncnc35)-c3ccccc3C4=O)cccc21 was read as AmpC inh no det -6.1%[5.75 µM].
For COc1cccc(Cn2c(=O)cnc3cnc(Nc4ccccc4)nc32)c1 the results were AmpC inh no det 14.6%.
For Cn1c(=O)oc2cc(S(=O)(=O)Nc3cccc(F)c3)ccc21 the results were AmpC inh no det -11.3%.
CC(C)OC(=O)Cn1c(=O)oc2ccccc21 was read as AmpC inh no det -8.2%.
For CN1C(=S)SC(C)(C)C1(C)NO (stereo unspecified) the results were AmpC inh no det -1.9%.
`Cc1cc(C)n2nc(C(=O)OCCOc3ccc(F)cc3)nc2n1` gave AmpC inh no det 17.1%.
CN(C)C(=O)c1ccc(-c2cc(NCc3cccs3)ncn2)cc1 was read as AmpC inh no det 17.4%.

The closing 4 compounds of the part before come first, to join the parts.
CC(C)OC(=O)Cn1c(=O)oc2ccccc21 was read as AmpC inh no det -8.2%.
For CN1C(=S)SC(C)(C)C1(C)NO (stereo unspecified) the results were AmpC inh no det -1.9%.
`Cc1cc(C)n2nc(C(=O)OCCOc3ccc(F)cc3)nc2n1` gave AmpC inh no det 17.1%.
CN(C)C(=O)c1ccc(-c2cc(NCc3cccs3)ncn2)cc1 was read as AmpC inh no det 17.4%.
For CCCn1cc(S(=O)(=O)CC(=O)NC2CCCCC2)c2ccccc21 the results were AmpC inh no det 15.1%.
For C=CCn1c(O)c(C(C)=Nc2cc(OC)ccc2OC)c(=O)[nH]c1=O the results were AmpC inh no det 8.9%.
`COc1ccc(-n2nc(C(=O)NCC(=O)NCc3ccco3)c3ccccc3c2=O)cc1Cl` gave AmpC inh no det 28.8%.
`CC(C)C[C@@H](CC(=O)N[C@@H](CCC(=O)O)CC(=O)O)NC(=O)[C@@H]1CNCC[C@H]1NC(=O)C[C@H](CCCN)NC(=O)C[C@H](Cc1ccccc1)NC(=O)[C@@H]1CNCC[C@H]1N` gave AmpC inh no det 83.6%.
Cc1ccc(NC2SC(=O)N(Cc3cccc(C(=O)O)c3)C2=O)cc1 (stereo unspecified) was read as AmpC inh no det -14.6%.
`CCOc1cc(C(=O)Nc2ncccn2)cc(OCC)c1OCC` gave AmpC inh no det 7.1%.
CC1CN(Cc2nc3c(c(=O)n(C)c(=O)n3C)n2Cc2cccc(Cl)c2)CC(C)O1 (stereo unspecified) was read as AmpC inh no det 47.2%.
For COc1ccc(C2CC3(CC(C)(C)NC(=O)N3)Oc3cc(O)ccc32)cc1 (stereo unspecified) the results were AmpC inh no det 48.0%.
For O=c1oc2c3c4c(cc2cc1-c1nc2ccccc2[nH]1)CCCN4CCC3 the results were AmpC inh no det 15.7%.
`Cn1c(O)c(C=NC2CC(C)(C)NC(C)(C)C2)c(=O)n(C)c1=O` gave AmpC inh no det -9.4%.
For CC1CC(C)CN(C(=O)CCCn2c(=S)[nH]c3ccccc3c2=O)C1 (stereo unspecified) the results were AmpC inh no det 6.0%.
For O=C(C1CCC1)N1CCc2cc(S(=O)(=O)NCCN3CCN(c4ccccc4F)CC3)ccc21 the results were AmpC inh no det 69.5%.
For Nc1c(O)cccc1C(=O)C[C@@H](N)C(=O)O the results were AmpC inh no det 0.1%[12.8 µM].
Cc1cc(C(F)F)n2nc(C(=O)Nc3ccccc3Br)nc2n1 was read as AmpC inh no det -14.6%.
Cc1cccc(Nc2ncc3c(n2)CC(C)CC3=O)c1 (stereo unspecified) was read as AmpC inh no det 3.0%.
Nc1ccc(Cl)cc1Cl was read as AmpC inh no det -5.0%.
COc1ccc(N=c2oc3c(OC)cccc3cc2C(=O)NCc2ccco2)c(OC)c1 was read as AmpC inh no det 56.7%.
Screening COc1ccccc1N1CCN(C(=O)N2CCOCC2)CC1 returned AmpC inh no det 15.4%.
For CC(=O)Nc1ccc(S(=O)(=O)N2CCN(C(C)CCc3ccccc3)CC2)cc1 (stereo unspecified) the results were AmpC inh no det 73.4%.
For CCOc1ccccc1/C=c1\sc2ncnn2c1=O the results were AmpC inh no det 10.7%.
COC(=O)N1CCC2(CCCN(Cc3ccccc3OC)C2)CC1 was read as AmpC inh no det 0.4%.
Screening COc1cccc(Cn2c(=O)c(-c3ccc(Cl)cc3)nc3cnc(N4CCN(C)CC4)nc32)c1 returned AmpC inh no det 66.5%.
`CCN1CCN(C(=O)C2CCN(Cc3nc(-c4cccc(Cl)c4)oc3C)CC2)CC1` gave AmpC inh no det 96.0%.
For COC(=O)c1ccccc1NC(=O)C1CCCN(S(=O)(=O)c2ccccc2)C1 (stereo unspecified) the results were AmpC inh no det 35.8%.
Clc1ccc(Oc2nc(Oc3ccc(Cl)cc3)nc(N3CCOCC3)n2)cc1 was read as AmpC inh no det 19.4%.
For CCOc1ccc2[nH]c(=O)c(CN(Cc3ccc(F)cc3)C(=O)c3ccco3)cc2c1 the results were AmpC inh no det 54.8%.
`COc1ccc(C2NC3=C(CCCC3)C(C#N)(C#N)C2(C#N)C#N)cc1` (stereo unspecified) gave AmpC inh no det 10.0%.
For O=C(NCCOc1ccccc1)C1CCCN1C(=O)c1cccs1 (stereo unspecified) the results were AmpC inh no det -3.3%.
Cc1cc([C@](C)(N)C(=O)O)ccc1P(=O)(O)O was read as AmpC inh no det 0.7%.
For Cc1nc2ncnn2c(N2CCN(C(=O)c3cccc(F)c3)CC2)c1Cc1ccccc1 the results were AmpC inh no det 114.8%.
For COC(=O)CSc1ncccc1-c1nc2ccccc2[nH]1 the results were AmpC inh no det -3.8%.
For CCn1c(SCC(=O)Nc2ccc(S(N)(=O)=O)cc2)nnc1-c1cccc(OC)c1 the results were AmpC inh no det -1.7%.
`NCCSSCCN` gave AmpC inh no det -10.1%[5.75 µM].
CCOC(=O)Cn1c(CN(Cc2ccccc2)Cc2ccccc2)nc2c1c(=O)[nH]c(=O)n2C was read as AmpC inh no det 120.9%.
For Cc1cc(C)nc(SCc2nnc(SCC#N)n2-c2cccc(Cl)c2)n1 the results were AmpC inh no det 46.7%.
CCc1ccccc1N(CC(=O)N1CCN(c2ccc(F)cc2)CC1)S(C)(=O)=O was read as AmpC inh no det 88.2%.
For O=C(c1cnccn1)N1CCC[C@@]2(CCN(c3cccc(-c4ccccc4)c3)C2)C1 the results were AmpC inh no det 142.5%.
CCCCN(C)C(=O)c1ccc2c(c1)N(CC)C(=O)c1ccccc1S2(=O)=O was read as AmpC inh no det 79.9%.
Screening CCCCCCCCCc1ccc(O)cc1 returned AmpC inh no det -21.1%.
CC(=NCc1cccnc1)c1c(O)n(C2CCCCC2)c(=O)[nH]c1=O was read as AmpC inh no det 29.7%.
`CCCc1cc(N2CCN(c3ccccn3)CC2)n2nc(C)c(-c3ccccc3)c2n1` gave AmpC inh no det 28.9%.
Cc1ccccc1Cn1c(CN2CCN(c3ccc(F)cc3)CC2)nc2c1c(=O)n(C)c(=O)n2C was read as AmpC inh no det 87.2%.
For O=C1CCC(=O)N1OCCCOc1ccc2c(c1)CCC2 the results were AmpC inh no det 47.2%.
`C/C(=N\O)c1cccc[n+]1Cc1ccccc1` gave AmpC inh no det 1.4%[5.75 µM].
Screening O=C1CN(C(=O)COC(=O)CCC(=O)c2ccc3c(c2)OCCO3)c2ccccc2N1 returned AmpC inh no det 11.7%.
For Cc1nn(-c2cccc(C(F)(F)F)c2)c(Cl)c1/C=N/n1cnnc1 the results were AmpC inh no det 60.9%.
`Cn1c(=O)[nH]c(=O)c2c1nc(SCC(=O)O)n2CCc1ccccc1` gave AmpC inh no det -1.0%.
For Cc1ccccc1Cn1cc(S(=O)(=O)CC(=O)Nc2nccs2)c2ccccc21 the results were AmpC inh no det inconclusive.
For C1=C(c2ccccc2)CCN(c2nc3ccccc3n3cnnc23)C1 the results were AmpC inh no det 65.6%.
For O=C(C1CCCN(S(=O)(=O)c2cccc3nsnc23)C1)N1CC=C(c2ccccc2)CC1 (stereo unspecified) the results were AmpC inh no det -7.0%.
`CCN(CC)CCCNC(=O)c1cc(-c2ccc(Cl)c(Cl)c2)on1` gave AmpC inh no det 38.8%.
Screening Cc1cc(Cl)cc(C)c1OCCCCN1CCOCC1 returned AmpC inh no det 71.5%.
`O=C(CSc1ncc(-c2ccc(F)cc2)n1Cc1ccco1)Nc1nccs1` gave AmpC inh no det -17.2%.
CCN(CCCNC(=O)CNC(=O)Cn1cnc2ccccc2c1=O)c1cccc(C)c1 was read as AmpC inh no det 114.6%.
CN(C(=O)CSc1nnc(NC2CCCCC2)s1)C1CCS(=O)(=O)C1 (stereo unspecified) was read as AmpC inh no det 1.1%.
`CC(C)OC(=O)CSc1ncnc2c1cnn2-c1ccccc1` gave AmpC inh no det -4.6%.
`CCN(CC)c1ccc(NC(=O)CN2CCN(c3ccc(F)cc3)CC2)cc1` gave AmpC inh no det 97.6%.
N#Cc1c(N)n[nH]c1-c1cc2c([nH]1)CCCC2 was read as AmpC inh no det -23.5%.
Screening Cc1cc2cc(CN(CCCO)S(=O)(=O)c3cccc4nsnc34)c(=O)[nH]c2cc1C returned AmpC inh no det 117.4%.
O=C(NCc1cccnc1)c1cccc2c1C(=O)N(C1CCCCC1)C2 was read as AmpC inh no det 40.3%.

Quoted at random: 5 records from the list.
For CN1C(=S)SC(C)(C)C1(C)NO (stereo unspecified) the results were AmpC inh no det -1.9%.
For COc1ccc(C2CC3(CC(C)(C)NC(=O)N3)Oc3cc(O)ccc32)cc1 (stereo unspecified) the results were AmpC inh no det 48.0%.
COC(=O)N1CCC2(CCCN(Cc3ccccc3OC)C2)CC1 was read as AmpC inh no det 0.4%.
For Nc1c(O)cccc1C(=O)C[C@@H](N)C(=O)O the results were AmpC inh no det 0.1%[12.8 µM].
O=C(NCc1cccnc1)c1cccc2c1C(=O)N(C1CCCCC1)C2 was read as AmpC inh no det 40.3%.

(further entries)
For CC1=C(C)C(=O)C(CCCCC#CCCCC#CCO)=C(C)C1=O the results were AmpC inh no det 21.2%.
`CCC[C@@H]1CC2=CC(=O)CC[C@]2(C)[C@@H]2CC[C@@]3(C)[C@H](CC[C@]3(O)CCC(=O)O)[C@H]12` gave AmpC inh no det 36.8%.
CN(CC(=O)NCc1ccccn1)S(=O)(=O)c1ccc(Cl)cc1 was read as AmpC inh no det 22.8%.
Screening O=S(=O)(NC1CCN(Cc2ccccc2)CC1)c1cccc(S(=O)(=O)N2CCOCC2)c1 returned AmpC inh no det 75.5%.
`COc1ccccc1-n1c(SCC(=O)NC(C)(C)C)nc(O)cc1=O` gave AmpC inh no det -3.6%.
`O=C(CN(Cc1ccco1)C(=O)CNS(=O)(=O)c1ccccc1)NCc1ccccc1` gave AmpC inh no det -0.3%.
For COc1nc(N(c2ccccc2)c2ccccc2)nc(-n2ccnc2)n1 the results were AmpC inh no det 80.2%.
`C=CCn1c(SCC2=C(C(=O)OCC)C(C)NC(=O)N2)nnc1C1CCCCC1` (stereo unspecified) gave AmpC inh no det 19.5%.
Screening CCOC(=O)c1nnc2cc(-c3ccccc3)nn2c1C returned AmpC inh no det 18.5%.
CCOC(=O)N1CCN(S(=O)(=O)c2cc(Br)cc3c2N(C(C)=O)C(C)C3)CC1 (stereo unspecified) was read as AmpC inh no det 102.4%.
